# RE007 growth inh: less growth of the S. pombe RE007 Vpr strain. S. pombe RE007 Vpr strain, BacTiter-Glo ATP luminescence, 24 h; control for the full effect not named in the record. Potency, µM (highest dose often 92.2 µM), without a hit: at the highest dose activity change, negative = less growth. 360,000 compounds, 0.21% hits. AID 651644; active = well fitted falling curve with a large enough effect; inconclusive = small, poorly fitted or top-dose-only effect; inactive = no such curve, though single readings can be large or run the other way;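 note: % is set by controls: 0 for no effect and ±100 for the full control effect; nearly all actives have a fitted effect of over 50% in size; the assay follows cell death caused by Vpr and the record does not say whether a fall means rescue or toxicity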
#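 Fission yeast RE007 carrying one integrated HIV-1 vpr copy, seeded at OD 0.01 in PMG+AL medium with 23 nL pinned compound. Grown 24 h at 30 degrees; viability read by BacTiter-Glo luminescence after 5 min.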
# Cruzain inh noDet: cruzain (T. cruzi) inhibition without detergent; 200,000 compounds, 2.3% hits; purified cruzain, Z-FR-AMC fluorescence, no detergent; P25779; Potency, µM, without a hit: max response, negative = inhibition, actives largely listed as inhibitors; AID 1476; active = well fitted curve in the direction sought with a large enough effect; inconclusive = small, poorly fitted or top-dose-only effect, or another doubt; inactive = no such curve, though single readings can be large; an effect the other way counts as inactive or inconclusive;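 note: plate controls were enzyme without inhibitor for no effect and buffer without enzyme for full effect; nearly all actives have a fitted effect of over 40% in size; top concentration of the series not given in the record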
# Target sequence (P25779 123-467 limits assumed): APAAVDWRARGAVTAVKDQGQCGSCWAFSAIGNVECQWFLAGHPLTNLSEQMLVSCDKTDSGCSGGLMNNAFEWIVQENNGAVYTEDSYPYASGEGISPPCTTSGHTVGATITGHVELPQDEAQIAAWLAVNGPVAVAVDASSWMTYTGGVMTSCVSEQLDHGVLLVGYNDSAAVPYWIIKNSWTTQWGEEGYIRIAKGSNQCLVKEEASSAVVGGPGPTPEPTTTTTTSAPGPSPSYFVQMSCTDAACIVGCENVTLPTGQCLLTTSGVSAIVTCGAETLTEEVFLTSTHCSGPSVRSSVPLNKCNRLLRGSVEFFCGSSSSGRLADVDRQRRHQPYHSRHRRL
#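 Purified cruzain at 1.5 nM, pre-incubated 15 min with compound at room temperature in 100 mM sodium acetate pH 5.5, 5 mM DTT, 0.00005% Triton X-100. Reaction started with 2 uM Z-FR-AMC; AMC fluorescence increase over 60 s gives rate.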
# Cruzain inh Det: cruzain (T. cruzi) inhibition with detergent. P25779. purified cruzain, Z-FR-AMC fluorescence, 0.01% Triton. Potency, µM, without a hit: max response, negative = inhibition, actives largely listed as inhibitors. 200,000 compounds, 0.43% hits; active = well fitted curve in the direction sought with a large enough effect; inconclusive = small, poorly fitted or top-dose-only effect, or another doubt; inactive = no such curve, though single readings can be large; an effect the other way counts as inactive or inconclusive;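 note: plate controls were neutral wells for no effect and buffer without enzyme for full effect; nearly all actives have a fitted effect of over 40% in size; top concentration of the series not given in the record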
#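 Read-out: AMC fluorescence (360 nm excitation, 450 nm emission), four reads over 2 min, first-to-third difference used. Conditions: cruzain 1.5 nM, Z-FR-AMC 2 uM, pH 5.5 acetate, 5 mM DTT, 0.01% Triton X-100.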
# LASV entry inh: inhibitors of Lassa virus binding or cell entry; Lassa virus pseudotype entry inhibition, cell reporter; control for the full effect not named in the record; Potency, µM (series often up to 37.9 µM), without a hit: at the highest dose activity change, negative = inhibition, hits mostly inhibitors; 300,000 compounds, 1.2% hits; AID 540256; active means well fitted inhibition curve with a large enough effect; inconclusive means small, poorly fitted or top-dose-only effect, or effect the other way; inactive means flat fitted curve, though single readings scatter; tested in HEK293 cells; note: % is set by controls: 0 for no effect and ±100 for the full control effect; nearly all actives have a fitted effect of over 50% in size; luciferase read-out
# SARS PLpro yeast: inhibitors of SARS-CoV papain-like protease in yeast | S. cerevisiae expressing SARS-CoV PLpro, growth rescue; control for the full effect not named in the record | Potency, µM (doses to about 32.9 µM), for the others: at the highest dose activity, positive = growth rescue | 330,000 compounds, 0.19% hits | AID 485353; note: 0% is about no effect; nearly all actives have a fitted effect of over 55% in size; growth read by luminescence after 48 h
# Marburg entry inh: blocks Marburg virus binding to or entry into cells | Marburg virus pseudotyped entry inhibition, cell reporter; control for the full effect not named in the record; about a third of the inactives were read at about 46 µM | Potency, µM (titrated, usually from 37.8 µM), inactives show top-dose activity change, negative = inhibition, actives largely listed as inhibitors | 300,000 compounds, 1.8% hits; active = well fitted inhibition curve with a large enough effect; inconclusive = small, poorly fitted or top-dose-only effect, or effect the other way; inactive = flat fitted curve, though single readings scatter; tested in HEK293 cells; about a fifth of its hits are not listed in these tables; note: % is set by controls: 0 for no effect and ±100 for the full control effect; luciferase read-out
# 2A StopGo: FMDV 2A StopGo reporter, luciferase signal | human cells with a luciferase reporter of 2A StopGo recoding; control for the full effect not named in the record | Potency, µM (series often up to 57.9 µM), inactives show at the highest dose signal change, negative = less light | 410,000 compounds, 1.2% hits; active = well fitted falling curve with a large enough effect; inconclusive = small, poorly fitted or top-dose-only effect; inactive = no such curve, though single readings can be large or run the other way; tested in HEK293T cells; note: % is set by controls: 0 for no effect and ±100 for the full control effect; nearly all actives have a fitted effect of over 45% in size; luciferase light after 4 h
# NS1 inh: blocks influenza NS1 protein function | S. cerevisiae slowed by influenza A NS1, growth recovery by OD600 | Potency, µM (doses to about 46.1 µM), for the others: at the highest dose activity, positive = more growth | 270,000 compounds, 0.4% hits | AID 2326; note: actives are rising curves; nearly all actives have a fitted effect of over 50% in size
#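 OD600 was taken as the measure of yeast growth restored by compound in an NS1-expressing S. cerevisiae strain. Cells had been washed out of glucose medium and diluted 1:100 into galactose -URA medium, pH 6.0.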
# Numbers without * were called inactive; u = inconclusive; x = not tested or not shown; & = joins results of further samples; [ ] = remark or other dose. Unless noted, calls come from the whole dose curve; as a rule, active means well fitted rising curve with a large enough effect; inconclusive means small, poorly fitted or top-dose-only effect; inactive means no such curve, though single readings can be large or run the other way. Potency is the fitted concentration of half-maximal effect.
SMILES,RE007 growth inh,Cruzain inh noDet,Cruzain inh Det,LASV entry inh,SARS PLpro yeast,Marburg entry inh,2A StopGo,NS1 inh
Cc1c(/C=N/NC(=O)c2cc(C(C)(C)C)[nH]n2)c2ccccc2n1C,-10%,x,x,-4%,0%,13%[46.1 µM],41%[activator],-2%
COc1ccc(N2Cc3ccccc3C2=NC(=O)c2ccc(C)cc2)cc1OC,-8%,x,x,-14%[46.1 µM],0%,u,14%,x
NNC(=O)/C(=N/Nc1ccccc1)S(=O)(=O)c1ccc(Cl)cc1,10%,-3%,-11%,16µM*,u,u,-22%,u
Cc1ccc(NC(=O)c2cnccn2)c(C)c1,1%,x,x,x,-5%,x,37%[activator],-8%
Cc1cc(C)cc(C(=O)NCc2ccc3c(c2)OCO3)c1,26%,x,x,x,-2%,x,13%,-20%
COC(C(=O)Nc1ccc(S(=O)(=O)Nc2ccc(F)cc2)cc1)c1ccccc1 (stereo not given),2%,-9%,-5.6%,u,0%,7.9µM*,6%,-8%
COC(=O)c1cc(Br)c(=O)n(-c2ccccc2OC)c1,1%,6%,0.7%,0%,-2%,3%,-21%,1%
COCCNC(=O)Cn1cc(/C=C(\C#N)C(=O)NC2CC2)c2ccccc21,-11%,x,x,2%[46.1 µM],-4%,1%[46.1 µM],1%,3%
Cc1cc(-c2csc(N)n2)c(C)n1CCC(C)C,-9%,25µM*,2.6%,13%,8%,-17%,22µM*,5%
CCn1c(C)c(C(=O)O)c2cc(OC)c3ccccc3c21,3%,x,x,x,-1%,x,-12%,3%
Cc1cccc(OCC(=O)NCC(=O)N/N=C/c2cc(Br)ccc2OCc2ccccc2)c1,-18%,u,-2.2%,-1%[46.1 µM],-4%,u,21%,18%
CCN1CCN(C(=O)C2c3cc(OC)c(OC)cc3C(=O)N3CCc4ccccc4C23)CC1 (stereo not given),-13%,1%,5.5%,-1%,5%,-11%,-13%,-3%
CNCC(=O)N(CC(C)C)c1c(N)n(CC(C)C)c(=O)[nH]c1=O,-6%,x,x,17%,-1%,7%[46.1 µM],-7%,2%
COC(=O)CSc1nc2ccccc2nc1SCC(=O)OC,-11%,3%,-6.1%,-7%,1%,13%,x,-15%
Cc1cccc(Nc2nc(C)cc(C)n2)c1,-3%,x,x,x,-6%,x,29%,9%
CC1=C(c2ccc(C(C)C)cc2)S(=O)(=O)N=C1N1CCC(C(=O)NCCc2ccco2)CC1,x,21%,10%,-4%[46.1 µM],x,x,-9%,x
COC(=O)C1CC(=O)N(c2ccc(C)cc2)C1 (stereo not given),10%,x,x,x,-1%,x,-4%,-1%
COc1ccc(NC2CCCN(C(=O)c3cccc(C(F)(F)F)c3)C2)cc1OC (stereo not given),5%,x,x,x,7%,x,-28%,u
C/C(=N\Nc1cccc([N+](=O)[O-])c1)c1cc(F)ccc1O,-5%,x,x,x,0%,x,21%,3%
Cc1cc(C)n(-c2ccc(C(=O)Nc3nc4ccccc4s3)cc2)n1,0%,1%,-26%,u,6%,-7%,2%,-1%
CC1CN(C(=O)c2ccc(NS(=O)(=O)c3ccc(C(C)(C)C)cc3)cc2)CC(C)O1 (stereo not given),-8%,x,x,x,-11%,x,11%,9%
COc1ccc(-n2nc(C#N)c(Cl)cc2=O)cc1,u,x,x,u,-14%,3.2µM*,22µM*,x
COc1ccc(-c2[nH]ncc2C(=O)NCc2ccccc2OC)cc1,x,8%,0.7%,x,x,15%[46.1 µM],20%,x
Cc1ccc(C(=O)Nn2c(C)nc3ccccc3c2=O)cc1C,-7%,x,x,x,-3%,x,-21%,-7%
Cc1cccc2cc(CN(Cc3ccco3)S(=O)(=O)c3ccc4c(c3)OCCO4)c(=O)[nH]c12,-3%,-25%,2.9%,-11%,7%,-3%,-5%,-15%
SMILES,RE007 growth inh,Cruzain inh noDet,Cruzain inh Det,LASV entry inh,SARS PLpro yeast,Marburg entry inh,2A StopGo,NS1 inh
Cc1ccc2ncnc(NCCCN3CCOCC3)c2c1,7%,8%,-1.2%,-1%,10%,1%,-2%,3%
CCCOc1ccc(-c2nc(SCc3ccccc3)[nH]c(=O)c2C#N)cc1OC,4%,x,x,u,1%,-12%[46.1 µM],u,4%
CCN(CC)C(=O)c1cc(-c2ccc(Cl)cc2)on1,x,-1%,-3.2%,16%[46.1 µM],x,u,86%[activator],x
Cc1ccc(Sc2ncccc2O)cc1,-8%,x,x,u,x,u,75%[activator],x
CCc1ccc(NC(=O)[C@H](C)NC(=O)C2CCN(C(=O)[C@@H](N)Cc3ccccc3)CC2)cc1,5%,x,x,x,1%,x,10%,6%
Nn1c(SCC(=O)N2CCOCC2)nnc1-c1ccccc1Cl,-8%,2%,4.9%,63%[14.3 µM],0%,8%,16%,2%
O=C(NCc1cccc(CNC(=O)c2ccco2)c1)c1ccco1,8%,4%,2.4%,5%,3%,0%,20%,-3%
CCN(CC)S(=O)(=O)c1ccc(OC)c(-n2cnnn2)c1,-2%,5%,0.4%,12%,0%,u,10%&-5%,6%
CCCCOc1cccc(C(=O)N(Cc2ccco2)C2CCS(=O)(=O)C2)c1 (stereo not given),-6%,9%,-0.7%,-2%,5%,u,-28%,-3%
O=C(COC(=O)c1ccc(S(=O)(=O)N2CCc3ccccc3C2)cc1)NC(=O)NCc1ccco1,-6%,-22%,5.4%,7%,7%,-2%,0%,5%
CCOC(=O)c1cnn2c(C(F)(F)F)cc(-c3ccccc3)nc12,16%,28%,5.4%,0%,18%,u,x,14%
COc1ccc(-c2cc(C(F)F)nc(-n3nc(C)cc3C)n2)cc1,-20%,u,-1.2%,-7%,14%,-2%,-30%,-50%
CC1CCCN(C(C(=O)Nc2ccc(C(C)C)cc2)c2ccc3c(c2)OCO3)C1 (stereo not given),-9%,12%,-5.8%,x,-16%,-1%,0%,-6%
COC(=O)c1ccc(Cn2nc(C(F)(F)F)cc2C)cc1,-19%,-11%,-2.9%,3%,4%,13%[46.1 µM],-4%,14%
CCCCN1C(=O)C(=Nc2cccc3cnccc23)c2ccccc21,4%,x,x,x,-11%,-26%[46.1 µM],u,x
Cc1nn(-c2cc(N3CCOCC3)ccc2[N+](=O)[O-])c(=O)c2ccccc12,-11%,8%,-9.7%,0%,-3%,3%,x,-1%
CC(C)CNCC1OCc2ccccc2CO1,7%,x,x,9%,0%,19%[46.1 µM],-5%,4%
Cc1ccc(C(=O)O/N=C/c2c(Cl)n(C)c3ccccc23)cc1,3%,4%,3.1%,12%,-3%,8%,25%,-4%
CC(C)Cc1nn2c(=O)cc(COC(=O)c3ccc(NC(=O)CCc4ccccc4)cc3)nc2s1,x,-14%,0.9%,u,x,x,11%,x
O=C(N/N=C/c1ccco1)c1cccc(N2CCCC2=O)c1,-1%,1%,-4.2%,16%,-7%,-2%,44%[activator],-1%
CCC1(C)Cc2ccccc2-c2nc3n(c(=O)c21)CCCCC3 (stereo not given),-8%,4%,-6.0%,-12%,-10%,-1%,u,-8%
COc1ccc(-c2nnc(SCC(=O)Nc3ccc(C(C)C)cc3)nc2-c2ccc(OC)c(OC)c2)cc1OC,x,-2%,1.6%,3%[46.1 µM],x,x,0%,x
CCCN1CCN(CCCNC(=O)c2cc3c(=O)n(C)c4ccccc4c3n2C)CC1,-13%,-6%,-2.0%,x,-2%,x,6%,1%
COc1cccc(-c2nc(CS(=O)(=O)CC(=O)Nc3cccc(C(C)=O)c3)c(C)o2)c1,-4%,-5%,-6.1%,-9%&10%[46.1 µM],-2%,2%&8%[46.1 µM],-24%&-12%,10%
CC(=O)Nc1ccc(Nc2ccc([N+](=O)[O-])cn2)cc1,-22%,x,x,-2%[46.1 µM],0%,u,23%,-8%
SMILES,RE007 growth inh,Cruzain inh noDet,Cruzain inh Det,LASV entry inh,SARS PLpro yeast,Marburg entry inh,2A StopGo,NS1 inh
CN(CC1COc2ccccc2O1)C(=S)NC1CCCCC1 (stereo not given),-12%,x,x,x,-2%,x,-1%,-8%
C=CCNC(=S)NS(=O)(=O)c1cccs1,-20%,x,x,3%,-1%,15%[46.1 µM],16%,x
CC1=Nc2ccccc2/C1=C/c1c(N)n2c(S(=O)(=O)CC(C)C)nsc2nc1=O,10%,x,x,4%[46.1 µM],1%,14%[46.1 µM],-7%,x
CC1=CC(C)C(C(=O)O)C(C(=O)O)C1 (stereo not given),-3%,8%,6.0%,2%,12%,1%,6%,u
CCOC(=O)c1c(NC(=O)CSc2nc3ccccc3[nH]2)sc2c1CC(C)(C)NC2(C)C,-12%,x,x,u,5%,u,-21%,x
COc1cc(C2CC(=O)Oc3cc(C)cc(C)c32)cc(OC)c1OC (stereo not given),14%,26%,-5.7%,x,-6%,x,-5%,x
CC12CC3CC(C)(C1)CC(C(=O)NC1=NCCS1)(C3)C2,5.6µM*,18%,-4.9%,2%,-12%,6%,u,-239%
CN(C)S(=O)(=O)c1cccc(NC(=O)COC(=O)CNC(=O)c2ccccc2F)c1,14%,x,x,x,0%,x,-11%,-6%
COC(=O)c1scc(S(C)(=O)=O)c1-n1cccc1,4%,x,x,-1%,1%,-4%,0%,8%
CC1(C)CC(NS(=O)(=O)c2ccccc2)CC(C)(C)N1,10%,-1%,6.6%,-2%,1%,1%,-9%,1%
COC(=O)c1ccc(CSc2nc3c([nH]c4ccccc43)c(=O)n2-c2ccc(OC)cc2)o1,x,3%,-1.0%,-1%[46.1 µM],x,x,-22%,x
Cc1noc(/C=C/N(C)C)c1S(=O)(=O)N(C)Cc1ccc(F)cc1,2%,x,x,x,6%,x,-1%,u
COc1ccccc1CNC(=O)C1CCCN(S(=O)(=O)c2cnc[nH]2)C1 (stereo not given),15%,-22%,1.5%,x,4%,x,-12%,2%
Cc1nn(-c2ccccc2)c(C)c1N,33%,x,x,-10%[46.1 µM],-1%,u,-8%,x
COc1ccc(C(=O)Nc2ccc(S(=O)(=O)N3CCN(C)CC3)cc2)cc1[N+](=O)[O-],5%,x,x,x,-8%,x,-15%,2%
Cc1noc(C)c1S(=O)(=O)N(CC(=O)NCc1ccc(F)cc1)c1ccc(C(C)C)cc1,-3%,x,x,x,-1%,x,-11%,2%
Cn1c(C(=O)NCc2ccc3c(c2)OCO3)cc2sccc21,0%,-13%,-2.7%,15%[14.3 µM],-18%,u,33%[activator],-2%
COc1cccc(CNC(=O)C2CCCN(c3cnccn3)C2)c1 (stereo not given),15%,x,x,11%[46.1 µM],1%,0%[46.1 µM],15%,-4%

# From PubChem BioAssay
